Assay outcomes as filed in PubChem BioAssay.
AmpC inh no det: Promiscuous and Specific Inhibitors of AmpC Beta-Lactamase (assay without detergent); P00811; AmpC nitrocefin hydrolysis, absorbance 480 nm, no detergent; potencies from a single point are estimates; Potency, µM (highest dose often 28.7 µM), without a hit: top-dose activity change, negative = inhibition; actives 1.8% (n = 71,000); active = falling curve, for most hits resting on a single point; inconclusive = weak or doubtful change; inactive = flat or rising curve; further: % of control where 0% means no effect; about half of the hits show no inhibition at the top dose; a quarter of the inactives give rising signals
Target sequence (P00811 whole entry, looked up): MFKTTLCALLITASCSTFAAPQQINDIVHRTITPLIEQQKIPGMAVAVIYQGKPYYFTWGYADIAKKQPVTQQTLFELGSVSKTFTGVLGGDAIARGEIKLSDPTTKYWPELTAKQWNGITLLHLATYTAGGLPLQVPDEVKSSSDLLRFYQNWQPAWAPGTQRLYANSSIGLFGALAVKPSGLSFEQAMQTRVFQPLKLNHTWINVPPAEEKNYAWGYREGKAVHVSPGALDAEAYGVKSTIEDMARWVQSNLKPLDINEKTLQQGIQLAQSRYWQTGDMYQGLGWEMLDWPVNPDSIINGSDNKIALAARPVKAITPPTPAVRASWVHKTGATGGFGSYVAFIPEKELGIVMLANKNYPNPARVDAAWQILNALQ
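AmpC in 20 mM phosphate buffer pH 7.0 was preincubated 15 min at room temperature with compounds. Nitrocefin (800 uM stock) was then added and hydrolysis followed at 480 nm every 20 s for 4 min.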
Numbers without * were called inactive; [ ] = another dose, or the depositor's remark. Potency means the concentration at half of the fitted maximal effect. This is a subset; rates above refer to the full screens.

The first 7 compounds, ahead of the listing:
canonical_smiles | AmpC inh no det
COc1cccc(OC)c1C(=O)Nc1ccc2c(c1)OCCO2 | -1.1%
Cn1nnc2cc(C(=O)N3CCC(c4ccccc4)C3)ccc21 (stereo not drawn) | 22.8%
COc1ccc(-c2noc(Cc3cccs3)n2)cc1 | -7.6%
COC(=O)c1sccc1NC(=O)c1ccc(Br)o1 | 8.0%
CCN1CCC(C(=O)NC2CCCC2)(N(Cc2cccs2)C(=O)Cn2nnc3ccccc32)CC1 | 3.3%
COC(=O)C1=C(N)Oc2cc(C)n(CCCn3ccnc3)c(=O)c2C1c1ccc(Cl)cc1 (stereo not drawn) | 101.7%
COC1Cc2ccccc2N(C(=O)N2CCN(CCO)CC2)c2ccccc21 (stereo not drawn) | 56.0%

This part in full, from the first entry:
canonical_smiles | AmpC inh no det
COc1cccc(OC)c1C(=O)Nc1ccc2c(c1)OCCO2 | -1.1%
Cn1nnc2cc(C(=O)N3CCC(c4ccccc4)C3)ccc21 (stereo not drawn) | 22.8%
COc1ccc(-c2noc(Cc3cccs3)n2)cc1 | -7.6%
COC(=O)c1sccc1NC(=O)c1ccc(Br)o1 | 8.0%
CCN1CCC(C(=O)NC2CCCC2)(N(Cc2cccs2)C(=O)Cn2nnc3ccccc32)CC1 | 3.3%
COC(=O)C1=C(N)Oc2cc(C)n(CCCn3ccnc3)c(=O)c2C1c1ccc(Cl)cc1 (stereo not drawn) | 101.7%
COC1Cc2ccccc2N(C(=O)N2CCN(CCO)CC2)c2ccccc21 (stereo not drawn) | 56.0%
O=C(CN1C(=O)C2C3C=CC(C3)C2C1=O)Nc1nc(SCc2ccc(Cl)cc2)n[nH]1 (stereo not drawn) | 6.1%
CCC1=C(C)C(N2CCOCC2)=NP(N2CCOCC2)(N2CCOCC2)=N1 | -10.7%
CC(=O)NCCNc1nc(-c2cccc(C#N)c2)nc2ccccc12 | 39.9%
Nc1nc2c(nc(Br)n2[C@@H]2O[C@H]3COP(=O)(O)O[C@H]3[C@@H]2O)c(=O)[nH]1 | 5.1%
O=C(Nc1ccccc1C(=O)N1CCOCC1)c1cccc(S(=O)(=O)N2CCCC2)c1 | -5.9%

Going on with the list.
canonical_smiles | AmpC inh no det
CCCNS(=O)(=O)c1ccc(CCC(=O)NCc2ccco2)cc1 | 4.7%
CC(=O)c1c(N2CCN(C(=O)C3CCCO3)CC2)nc(=S)n(-c2ccccc2)c1C (stereo not drawn) | 2.2%
O=C(CN1CCN(c2ccccn2)CC1)Nc1ccc(OCc2ccccc2)cc1 | 117.4%
O=C(CN(C(=O)c1ccc2c(c1)OCCO2)c1ccccc1)NCC1CCCO1 (stereo not drawn) | 14.2%
COc1ccc(-c2ccnc(SCC(=O)N3CCOCC3)n2)cc1 | 20.2%
Cc1nc(CCNC(=O)c2ccccc2)cs1 | -10.9%
COc1ccc2c(c1)[C@]13CCCC[C@@H]1[C@H](C2)NCC3 | 0.9%
CC(=O)c1ccc(CCCC(=O)O)cc1 | -3.0%
COCCNC(=O)c1cc(-c2cccc(OC)c2)on1 | 6.6%
C=CCn1c(N)c(C(=O)NCCC2=CCCCC2)sc1=S | -14.4%
CC1=CC(C)(C)N(C(=O)c2ccc(F)cc2)c2cc3c(cc21)OCO3 | 3.9%
CCOC(=O)C(O)(c1ccc(N(CC)S(=O)(=O)c2ccccc2)cc1)C(F)(F)F (stereo not drawn) | 12.1%

Carrying on.
canonical_smiles | AmpC inh no det
CCn1c(SCC(=O)Nc2nccs2)nnc1-c1cc2cccc(OC)c2o1 | 6.2%
CC1(C)CC(=O)C=C(Nc2ccc(F)cc2F)C1 | 13.3%
CN(C(=O)c1cc2n(n1)C(C(F)(F)F)CC(c1ccco1)N2)c1ccccc1 (stereo not drawn) | 45.8%
COc1nc(NCC(C)C)nc(Oc2ccc(OCc3ccccc3)nn2)n1 | 47.7%
COc1ccc(S(=O)(=O)N2CCCC2)c(C)c1C | 9.1%
Cc1cc(C)n(-c2ccc(C(=O)C(C#N)c3nc4ccccc4n3C)cc2)n1 (stereo not drawn) | 50.1%
COc1cc(C(=O)Nc2ccc3c(c2)OCCO3)ccc1OC(F)F | -19.4%
O=C(O)CCc1ccc(-c2ccc(Cl)cc2)n1CC(=O)O | 3.2%
O=C(NCC1CCCO1)c1ccc2c(c1)N(Cc1ccccc1)C(=O)CS2=O (stereo not drawn) | 54.5%
CCc1nnc(NC(=O)c2ccc(COc3ccccc3)o2)s1 | -0.8%
COC(=O)c1sccc1NC(=O)c1csc2c1CCCC2 | -12.5%
O=C(Nc1ccc(-c2nnc(-c3ccccc3)o2)cc1)c1ccc(Br)o1 | 125.3%

2 compounds picked at random from those above:
canonical_smiles | AmpC inh no det
Cn1nnc2cc(C(=O)N3CCC(c4ccccc4)C3)ccc21 (stereo not drawn) | 22.8%
COC(=O)c1sccc1NC(=O)c1csc2c1CCCC2 | -12.5%

(next part)
canonical_smiles | AmpC inh no det
COc1ccc(N(CC(=O)NC(C)(C)C)S(=O)(=O)c2ccccc2)cc1OC | 52.9%
NCCc1ccc(S(=O)(=O)O)cc1[N+](=O)[O-] | 3.3%[5.75 µM]
O=C(NC1CC1)c1ccc(CSCc2cccc(F)c2)o1 | 23.0%
COc1ccc(CNCC(O)COCc2cccs2)cc1 (stereo not drawn) | 6.5%
NC[C@@]12CCCC1C1CCC2C1 (stereo partly drawn) | -11.9%
Cc1ccc2c(c1)C1(C(=O)N2C)N2CC3(C)CN1CC(C)(C2)C3=O (stereo not drawn) | -3.8%
C=CCn1c(N)c(C(=O)NCc2ccco2)sc1=S | -11.8%
CCOC(=O)N1CCN(C(=O)CNS(=O)(=O)c2cccs2)CC1 | 2.4%
CCCn1c(NCc2cccs2)nc2ccccc21 | -0.7%
CCN(CC)C(=O)c1n[nH]c(=O)c2ccccc12 | -5.8%
Cc1cc(-c2nsc(=O)o2)c(S(C)(=O)=O)s1 | -3.7%
COc1cccc(CNC(=O)Cn2cc3c(n2)CCCC3)c1 | 3.4%

Next section.
canonical_smiles | AmpC inh no det
CCOc1ccc(N2CCCCn3c2nc2c3c(=O)[nH]c(=O)n2C)cc1 | 2.6%
O=C(c1csnn1)N1CCC2(CC1)CN(c1ccncc1)C2 | 3.1%
COc1ccc(NC(=O)N(CCO)Cc2cc3c(C)cc(C)cc3[nH]c2=O)cc1 | 66.4%
CSc1nc2ccc(NS(=O)(=O)c3ccc(Cl)s3)cc2s1 | -10.6%
COC(=O)c1c(NC(=O)CSc2nnnn2-c2ccccc2)sc2c1CCCC2 | -6.9%
Cn1c(SCc2ccc(C#N)cc2)nnc1-c1cccc(Cl)c1 | 24.2%
Cc1cc(NC(=O)CSc2nnc(Cc3ccccc3)o2)no1 | -7.7%
COc1ccc2cc(CN(Cc3ccco3)C(c3nnnn3C3CCCCC3)C(C)C)c(=O)[nH]c2c1 (stereo not drawn) | 54.2%
COc1ccc(C(=O)N2CCN(S(=O)(=O)N3CCOCC3)CC2)cc1OC | 4.1%
Cc1ccc(CS(=O)(=O)CCC(=O)NCc2ccc3c(c2)OCO3)cc1 | 6.6%
Oc1ccc(Cl)cc1/C=N/c1nccs1 | -2.1%
CN(Cc1ccccc1)S(=O)(=O)c1ccc2[nH]cc(C(=O)NCC3CCCO3)c(=O)c2c1 (stereo not drawn) | 126.6%

(cont.)
canonical_smiles | AmpC inh no det
Cc1cc(C(=O)O)c(=O)[nH]c1C | -2.4%
O=C(O)CNC(=O)c1ccccc1NC(=O)c1ccco1 | -11.0%
COc1cc(OC)cc(C(=O)NCC(=O)OC2CCOC2=O)c1 (stereo not drawn) | 2.2%
CC(=O)Nc1ccc(S(=O)(=O)Nc2nc3ccccc3nc2N2CCCC2)cc1 | 28.5%
CNC(=O)NCC12CC3CC(CC(C3)C1)C2 | 0.4%
O=C1CC(N2CCN(c3ccc(Cl)c(Cl)c3)CC2)C(=O)N1 (stereo not drawn) | 27.0%
NC(=O)N1c2ccccc2CC(=O)c2ccccc21 | -6.5%
COc1ccc(OCC(=O)Nc2ccc(N3CCOCC3)cc2)cc1 | 19.0%
CC(=NC1CCCCC1)c1ccccc1O | -4.9%[5.75 µM]
Cc1nc2cnc(Nc3ccccc3)nc2n(CCc2ccccc2)c1=O | -7.2%
COCCNC(=O)CN(c1ccc(C)cc1)S(=O)(=O)c1ccc(SC)cc1 | 109.2%
COCCN(CCOC)C(=O)c1c[nH]c2ccc(S(=O)(=O)N(C)c3ccc(F)cc3)cc2c1=O | 18.8%

The results go on:
canonical_smiles | AmpC inh no det
CSCC[C@H](NC(=O)NCCC1=CCCCC1)C(=O)O | -2.6%
CCCCNC(=O)c1cc(-c2ccc(OC)c(OC)c2)on1 | 17.0%
Cc1ccc(N2CC(C(=O)NC3=NCCS3)CC2=O)cc1 (stereo not drawn) | 1.6%
COc1ccc(-n2c(Cc3cccs3)nnc2SCC(=O)Nc2ccc3c(c2)OCCO3)cc1 | 6.8%
CCc1nnc(NC(=O)CN2CCC(O)(c3ccccc3OC)CC2)s1 | -1.8%
CCOC(=O)N1CCC(O)(c2cc(C)c(C)cc2C)CC1 | 29.8%
Cn1c(NC(=O)c2ccccc2C(F)(F)F)cc(=O)n(C)c1=O | 0.2%
Cc1noc(C)c1C(=O)Nc1sc(C)c(-c2ccccc2)c1C#N | 0.8%
N#CC1=C(N)C(C#N)(C#N)C(c2cccnc2)C2COCC=C12 (stereo not drawn) | 6.1%
N#CC1=C(N)SC(N)=C(C#N)C1c1cccc(Oc2ccccc2)c1 | 7.94µM*
CC(=O)c1c(C)nc(-c2ccc(Cl)cc2)nc1NC(=O)C(C)C | 39.5%
O=C(Nc1nccs1)c1ccc(Cl)c(S(=O)(=O)N2CCCCC2)c1 | -18.9%

Further entries follow.
canonical_smiles	AmpC inh no det
COc1ccc(-c2nc3cc(NC(=O)c4ccc5c(c4)OCO5)ccc3o2)cc1	9.2%
O=C(NC1CCCCC1)C(c1ccccc1)N1CCC2(CC1)OCCO2 (stereo not drawn)	20.7%
Cc1ccccc1C(=O)Nc1ccc2nc3n(c(=O)c2c1)CCC3	1.1%
Cc1nc(Nc2nc(-c3ccccc3)cc(=O)[nH]2)nc2ccccc12	96.6%
COc1ccc(C(=O)COC(=O)CCCn2c(=O)oc3ccccc32)cc1	20.0%
Cc1cc(Nc2cccc(Cl)c2)n2ncnc2n1	1.0%
CC1CCCN(C(c2ccccc2)c2sc3ncnn3c2O)C1 (stereo not drawn)	22.1%
O=C(Cn1c(-c2ccco2)nc2ccccc21)N1CCCCC1	-1.8%
COc1ccccc1NC(=O)c1ccc(NS(=O)(=O)c2c(C)noc2C)cc1	9.2%
Cc1ccc2c(CC(=O)Nc3ccc(N4CCN(C)CC4)cc3C)coc2c1	53.2%
CCN(CCO)Cc1cn[nH]c1-c1ccc(C)c(C)c1	-23.1%
CCCCC(CC)COC(=O)c1ccc(C(=O)OCC(CC)CCCC)c(C(=O)OCC(CC)CCCC)c1 (stereo not drawn)	-17.3%
CC(C)N[C@@H](C)Cc1ccc(I)cc1	1.3%
O=C(Nc1c(F)cc(F)cc1Br)c1cc2nc(C(F)F)cc(C(F)F)n2n1	-11.8%
CCCCNC(=O)CCCn1c(=S)[nH]c2cc3c(cc2c1=O)OCO3	-9.9%
Cn1c(=O)c2c(n(C)c1=O)=NC1(CCCCC1)N=2	98.6%
CC1(C)O[C@@H]2C[C@H]3[C@H]4C[C@H](F)C5=CC(=O)CC[C@]5(C)[C@@H]4[C@H](O)C[C@]3(C)[C@]2(C(=O)CO)O1	17.8%[12.8 µM]
COc1ccc2nc(NC(=O)C3CCCN(S(=O)(=O)c4cccs4)C3)sc2c1 (stereo not drawn)	1.7%
O=C(c1cnc2sccn2c1=O)N1CCCc2ccccc21	13.7%
O=C(c1csnn1)N1CCC[C@@]2(CCN(c3ccccc3)C2)C1	55.5%
O=C(CCc1ccccc1)Nc1ccc(NC(=O)C2CC2)nc1	-9.2%
CCOc1ccccc1Oc1coc2cc(O)ccc2c1=O	4.6%
N#Cc1nc(-c2ccc(Cl)cc2)oc1NCCc1ccccn1	-2.2%
COc1ccc(Cl)cc1-n1c(=S)sc2c(=O)[nH]c(SCC(=O)NCC3CCCO3)nc21 (stereo not drawn)	6.0%
COc1ccc(C[C@H](N)C(=O)N[C@@H]2[C@H](O)[C@H](n3cnc4c(N(C)C)ncnc43)O[C@@H]2CO)cc1	-5.9%[12.8 µM]

Next part:
canonical_smiles	AmpC inh no det
Cc1cc(C)c2[nH]c(=O)c(C(c3nnnn3Cc3ccc4c(c3)OCO4)N3CCC(C)CC3)cc2c1 (stereo not drawn)	59.5%
CCc1ccc(OC)c(S(=O)(=O)NCCOc2ccccc2)c1	16.4%
Clc1cccc(SC2CCNCC2)n1	9.3%
Cc1ccccc1N1C(=O)C(Cl)=C(N2CCN(c3ccccc3)CC2)C1=O	10.0%
Cc1[nH]c2ccccc2c1NC(=O)CN1CCN(Cc2ccc3c(c2)OCO3)CC1	42.6%
O=C(CC1CCCCC1)OCn1nnc2ccccc2c1=O	21.1%
CCOC(=O)c1sc(N)nc1-c1ccccc1	-10.4%
O=[N+]([O-])c1cc(-c2ccc([As](=O)(O)O)cc2)ccc1[As](=O)(O)O	-5.4%[5.75 µM]
CS(=N)(=O)CC[C@@H](N)C(=O)O (stereo partly drawn)	-0.2%[12.8 µM]
COC(=O)c1[nH]c2cc(OC)ccc2c1NC(=O)CCN1CCN(Cc2ccc3c(c2)OCO3)CC1	91.0%
Cc1cccc(NC(=O)c2ccc(NS(=O)(=O)c3c(C)noc3C)cc2)c1	-16.0%
CC1NC(=O)N(C)C2NC(=O)N(C)C(c3ccccc3)C12 (stereo not drawn)	0.6%
CN1C[C@H](C(=O)N[C@@]2(C)O[C@@]3(O)[C@H]4CCCN4C(=O)[C@@H](Cc4ccccc4)N3C2=O)C=C2c3cccc4[nH]cc(c34)C[C@@H]21	22.2%[5.75 µM]
COc1ccc2cc(C(=O)N3CCOCC3)sc(=O)c2c1OC	-5.7%
